Mtb betalactam: beta-lactam sensitization of Mtb H37Rv, H37Rv; M. tuberculosis H37Rv growth with meropenem, percent inhibition; hits of this screen are not shown here; inhibition, % at 25 µM; 330,000 tested, 0.27% active; AID 434955, 2010;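 active = about 74% or more and at least 40 points above the plate without the antibiotic, then above 30% in a dose series; inconclusive = first-round hits that could not be retested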;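 note: growth measured after seven days incubation then overnight dye step; 0% = bacteria only wells and 100% = bacteria with antibiotic; twin plates without the antibiotic show which effects depend on it; some results filed as inactive read as strong as hits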
Arbovirus anti: antivirals against arbovirus infection, primary screen, cell-based, full library, 10K replicate subset; inhibition, % at 10 µM; arbovirus infection cell-based antiviral screen; 200,000 tested, 0.37% active;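 active = inhibition from about 30%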;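 note: bluetongue infection of BSR cells; cell survival read as ATP light after 72 h; 0% = infected wells without compound and 100% = uninfected wells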
YopH inh: YopH tyrosine phosphatase inhibitors, primary screen, biochemical, fluorescence Ex485/Em525. inhibition, %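 (about 10 µM by stock and volumes)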. YopH tyrosine phosphatase [Yersinia enterocolitica]. AID 898, 2007. 140,000 tested, 0.16% active;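 active = inhibition of 50% or more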;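 note: controls were vehicle for no effect and minimum signal wells for full effect; inactives centre near -20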
RecA splice inh: Mtb RecA intein splicing inhibitors, primary screen, biochemical, fluorescence, HTS. Protein RecA (Mycobacterium tuberculosis (strain ATCC 25618 / H37Rv)), P9WHJ3. cell-free RecA intein splicing. inhibition, %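 (about 9 µM by stock and volumes)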. 290,000 tested, 0.75% active; in the data active = inhibition above about 30%; inconclusive = no clear call, values can overlap the other calls;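 note: 0% = vehicle wells and 100% = reference inhibitor control wells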
Target sequence (P9WHJ3 whole entry, looked up, canonical isoform): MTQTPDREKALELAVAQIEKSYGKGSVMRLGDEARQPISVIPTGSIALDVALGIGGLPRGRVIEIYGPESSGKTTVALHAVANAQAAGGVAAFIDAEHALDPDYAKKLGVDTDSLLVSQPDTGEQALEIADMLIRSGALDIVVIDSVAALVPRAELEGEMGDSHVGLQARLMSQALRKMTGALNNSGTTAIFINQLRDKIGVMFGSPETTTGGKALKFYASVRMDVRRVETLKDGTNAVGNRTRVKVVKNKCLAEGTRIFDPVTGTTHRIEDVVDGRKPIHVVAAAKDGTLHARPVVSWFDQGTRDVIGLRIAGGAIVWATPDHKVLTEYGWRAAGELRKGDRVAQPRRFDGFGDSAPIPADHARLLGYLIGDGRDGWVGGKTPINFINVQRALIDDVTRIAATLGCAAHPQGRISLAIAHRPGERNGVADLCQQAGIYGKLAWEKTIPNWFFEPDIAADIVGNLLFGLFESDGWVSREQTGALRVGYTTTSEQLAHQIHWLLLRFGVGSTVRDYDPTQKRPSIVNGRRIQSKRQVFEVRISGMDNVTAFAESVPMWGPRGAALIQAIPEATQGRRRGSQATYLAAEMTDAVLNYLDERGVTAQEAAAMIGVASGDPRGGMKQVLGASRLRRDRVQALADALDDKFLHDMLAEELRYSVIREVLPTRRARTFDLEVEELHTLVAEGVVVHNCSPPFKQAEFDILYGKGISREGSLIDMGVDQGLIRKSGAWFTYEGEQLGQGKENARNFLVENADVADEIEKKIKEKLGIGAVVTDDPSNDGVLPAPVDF
Mtb growth: M. tuberculosis H37Rv growth inhibitors, H37Rv strain (AID 1626); M. tuberculosis H37Rv growth inhibition; higher % means a stronger effect; 220,000 tested, 0.95% active; one-dose inhibition, % at 10 µM; IC50 in µM for titrated hits;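 active = confirmed in a dose series; inconclusive = inhibition above 80% but not taken into the dose series; inactive = below 80% or under 30% at every dose of the series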;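 note: bacteria incubated seven days before Alamar blue readout; 0% = bacteria only wells and 100% = bacteria with antibiotic wells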
Arbovirus anti repeat: further read-out of Arbovirus anti, marked with its call; inhibition, %; measured here: 10K subset replicate screen; many hits read low in the repeat;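 first of two repeat runs on a subset; 0% = infected and 100% = uninfected wells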
* marks the source's active call; other numbers are inactive results; ? = inconclusive; . = not tested or not shown.

SMILES	Mtb betalactam	Arbovirus anti	YopH inh	RecA splice inh	Mtb growth	others
CC(=O)c1cc(C#N)c(Oc2cccc(C(F)(F)F)c2)nc1C	0	-4	-2	3.0	7%
COc1cccc(C2CC(c3ccccc3OC)n3nc(N)nc3N2)c1 (stereo not given)	-3	17	-47	-0.5	-3%	Arbovirus anti repeat=1
COC(=O)C(NS(C)(=O)=O)(c1c(C)[nH]c2ccccc12)C(F)(F)F (stereo not given)	-10	3	4	-0.8	.
CCOC(=O)c1sc(NC(=O)c2cc3n(n2)C(C(F)(F)F)CC(c2cccs2)N3)c(C(=O)OCC)c1C (stereo not given)	96	-16	-21	2.6	39%
COc1ccc(C(=O)Nc2nccs2)cc1	1	.	.	-1.8	.
O=C(N[C@@H](Cc1ccccc1)C(=O)OCc1ccccc1)c1nc[nH]c1C(=O)NC(c1ccccc1)c1ccccc1	3	3	.	0.4	8%
CSc1nc2[nH]c3c(c2c2nncn12)CC(C)(C)OC3	-6	2	2	0.1	-2%
O=C(NCc1ccccc1)c1cc(-n2cnnc2)ccc1Cl	-2	7	-9	.	-2%
CN(C)C1(CNC(=O)C2CCN(S(=O)(=O)c3cc(Cl)ccc3Cl)CC2)CCCCC1	3	.	.	1.9	.
CCO[C@@H]1OC(C(=O)Nc2ccccc2)=C[C@H](C)[C@H]1CCCO	2	.	.	1.3	-8%
CC(C(=O)c1c[nH]c2ccccc12)N1CCSCC1 (stereo not given)	6	-1	-21	-2.5	3%
O=C(NC(CSCc1ccccc1)C(=O)N/N=C/c1ccc(O)cc1O)c1ccc([N+](=O)[O-])cc1 (stereo not given)	-5	-37	-42	27	5%

Grouped by structure, the compounds so far containing fluorine (three)
SMILES	Mtb betalactam	Arbovirus anti	YopH inh	RecA splice inh	Mtb growth	others
CC(=O)c1cc(C#N)c(Oc2cccc(C(F)(F)F)c2)nc1C	0	-4	-2	3.0	7%
COC(=O)C(NS(C)(=O)=O)(c1c(C)[nH]c2ccccc12)C(F)(F)F (stereo not given)	-10	3	4	-0.8	.
CCOC(=O)c1sc(NC(=O)c2cc3n(n2)C(C(F)(F)F)CC(c2cccs2)N3)c(C(=O)OCC)c1C (stereo not given)	96	-16	-21	2.6	39%

(list continues)
SMILES	Mtb betalactam	Arbovirus anti	YopH inh	RecA splice inh	Mtb growth	others
CCn1c(Cc2c(C)[nH]c3ccccc23)nnc1SCC(N)=O	2	12	-13	1.3	-3%
CC(=O)Cc1nsc(NC(=O)c2ccc(-c3cc(C(F)(F)F)ccc3Cl)o2)n1	-6	4	-2	-1.0	0%
C/C(Cl)=C/Cn1c(=O)c2c(nc(Br)n2Cc2ccccc2)n(C)c1=O	-10	8	-13	2.1	13%
Cc1cccc(NC(=O)CCc2nc3sc4c(c3c(=O)[nH]2)CCCC4)n1	12	.	.	-1.1	.
CCC1CN(C(=O)N2CCC(C(=O)NCc3ccc(C)o3)CC2)c2cc(C)ccc2O1 (stereo not given)	-9	.	.	-1.9	.
COc1ccc(C(C(=O)NC(C)(C)C)N(C(=O)CNC(=O)c2cccs2)c2ccc(NC(C)=O)cc2)cc1OC (stereo not given)	-4	0	.	3.8	-1%
Cc1noc(C)c1CSc1nc2sc(C)c(C)c2c(=O)n1-c1ccccc1	23	-11	21	1.7	-3%
COc1cccc(N(Cc2nnc3n2CCCCC3)C(=O)Nc2ccccc2F)c1	-5	0	.	5.5	7%
Cc1ccc(C(=O)N2CC(C)OC(C)C2)c(Cl)c1 (stereo not given)	-22	3	2	0.2	-6%
CCSc1nc2cc(OC)c(OC)cc2c(=O)n1CCc1ccccc1	.	-1	4	-3.7	11%
Cc1ccc(NC(=O)CN(C)C(=O)Cn2nnc(-c3ccccc3)n2)cc1	4	.	.	-0.5	.
COc1cc(/C=N/N=C(\N)c2nonc2N)cc(OC)c1OC	-4	-5	.	-1.9	-10%
Cc1ccnc(NC(=O)COc2c(C)cc(C)cc2[N+](=O)[O-])c1	0	1	-28	-0.5	0%
O=S(=O)(c1ccc(F)c(F)c1F)N1CCN(C(=S)NC2CC3CCC2C3)CC1 (stereo not given)	8	4	.	-2.2	-6%
CC(=O)Nc1ccc(-n2c(C)c(C(C)=O)c(C(C)=O)c2C)cc1	-6	1	-45	-0.9	-9%	Arbovirus anti repeat=2
CCCS(=O)(=O)c1c(S(=O)(=O)CCC)c2cnccn2c1C(=O)c1ccc(Cl)cc1	-9	-1	-6	4.1	-3%
O=C(CP(=O)(c1ccccc1)c1ccccc1)N1CCCCC1	-3	7	-14	-1.8	-17%
COc1ccc(N(Cc2cc3ccc(C)cc3[nH]c2=O)C(=O)C2CCCO2)cc1 (stereo not given)	-12	.	.	-2.7	-9%
CN1CCN(CCCNC(=O)c2ccc(/C=C3\Oc4ccccc4N(Cc4ccc(Cl)cc4)C3=O)cc2)CC1	99	.	.	-109	.
Cc1ccc(N(CC2CO2)S(=O)(=O)c2ccccc2[N+](=O)[O-])cc1 (stereo not given)	-11	.	.	3.3	.
COc1ccc(C2Nc3ccccc3C(=O)N2c2ccc(F)cc2)cc1CSc1ccccn1 (stereo not given)	3	-11	-31	-1.3	1%
CCC(C)NCCOc1ccc(Br)cc1 (stereo not given)	-11	-4	-2	8.9	8%
CCCCCC(=O)NNC1=NCC(Cc2cccc(Cl)c2)S1 (stereo not given)	94	3	.	11	?
Cc1cc(C)c(NC(=O)C2CCCN2CCOC(=O)c2ccccc2)c(C)c1 (stereo not given)	3	-3	-23	8.9	0%
Cc1ccc(CN2C(=O)C(C)Nc3ncnc(N4CCN(c5ccccn5)CC4)c32)cc1 (stereo not given)	51	.	.	19	.
Cc1cc(N2CCOCC2)nc2ccc(NC(=S)NCc3ccc4c(c3)OCO4)cc12	0	-9	.	2.5	2%
O=C(/C=C/c1ccccc1)N/C(=C/c1ccccc1)C(=O)NCCO	-10	0	-35	1.0	0%
Clc1ccc(-c2nc3ccccc3nc2-c2ccccc2)cc1	-1	10	-19	2.6	14%
O=C(Oc1cccc(Oc2ccccc2)c1)N1CCOCC1	-4	6	30	2.4	11%
O=C(NC(=S)Nc1cc(C(F)(F)F)ccc1Cl)c1ccccc1	6	2	-37	0.5	1%
COc1ccc(CNC(=O)Cn2cnc3c(=O)n(C)c(=O)n(C)c32)cc1	4	8	-13	-1.0	-6%
CCN(CC(=O)NC1CCS(=O)(=O)C1)S(=O)(=O)c1ccc(F)cc1 (stereo not given)	-1	0	-15	2.2	-5%
Cc1ccc(OCCC(=O)OCC(=O)Nc2ccc(N3CCOCC3)cc2)cc1	2	.	.	0.4	.
NS(=O)(=O)c1ccc(N=Nc2ccc(=O)[nH]c2O)cc1	-2	.	.	73*	-8%
COc1ccc(NC(=O)CCc2nnc3ccc(NCc4ccco4)nn23)cc1	-4	.	.	1.8	.
COc1ccccc1OC1=NS(=O)(=O)c2ccccc21	-7	14	-9	0.4	-6%

Some of these compounds in order of length of the SMILES, high to low:
SMILES	Mtb betalactam	Arbovirus anti	YopH inh	RecA splice inh	Mtb growth	others
Cc1cc(N2CCOCC2)nc2ccc(NC(=S)NCc3ccc4c(c3)OCO4)cc12	0	-9	.	2.5	2%
COc1ccc(NC(=O)CCc2nnc3ccc(NCc4ccco4)nn23)cc1	-4	.	.	1.8	.
O=C(/C=C/c1ccccc1)N/C(=C/c1ccccc1)C(=O)NCCO	-10	0	-35	1.0	0%

(further entries)
SMILES	Mtb betalactam	Arbovirus anti	YopH inh	RecA splice inh	Mtb growth	others
CCOc1ccccc1C(=O)NC(C(=O)NCc1ccccc1OC)C(C)C (stereo not given)	0	0	.	1.1	2%
O=C1C=C(N2CCN(C3=CC(=O)CCC3)CC2)CCC1	?	8	11	-2.4	.
O=C(NCc1ccccc1Cl)C1CCN(S(=O)(=O)N2CCCCC2)CC1	-3	-12	0	-0.1	14%
COc1ccc(CCN2C(=O)CC(Cc3ccc(Br)cc3)C2=O)cc1OC (stereo not given)	-5	6	-12	4.8	3%
COC(=O)OCC12CCC(O1)C1(C)C(=O)OCC21 (stereo not given)	-6	-9	-33	-1.3	2%
CC(NC(=O)CCC(=O)N1CCCCCC1)c1ccccc1 (stereo not given)	-8	.	.	0.3	.
COc1ccc(-n2cnnc2SCC(=O)c2ccc(S(=O)(=O)N3CCOCC3)cc2)cc1	10	10	-10	1.6	-9%
COc1cc(CNc2ncn[nH]2)ccc1OCc1cccc(C)c1	-3	0	.	-2.9	5%
CC12CCC(=O)N1C(C(=O)Nc1ccc(Br)cc1Cl)CS2 (stereo not given)	?	.	.	2.9	.
O=C(O)Cc1sc(-c2ccccc2)nc1-c1ccccc1	-1	9	-29	-0.4	-4%
CCc1ccc(S(=O)(=O)/N=C2\C=CC(=O)c3ccccc32)cc1	6	-33	.	93*	-7%
CCCOc1ccc(N2C(=O)CC(N(CCc3ccccc3)C(=O)c3ccccc3)C2=O)cc1 (stereo not given)	-1	0	.	-2.8	-3%

Gathered by group: the entries above containing a CF3 group.
SMILES	Mtb betalactam	Arbovirus anti	YopH inh	RecA splice inh	Mtb growth	others
CC(=O)c1cc(C#N)c(Oc2cccc(C(F)(F)F)c2)nc1C	0	-4	-2	3.0	7%
COC(=O)C(NS(C)(=O)=O)(c1c(C)[nH]c2ccccc12)C(F)(F)F (stereo not given)	-10	3	4	-0.8	.
CCOC(=O)c1sc(NC(=O)c2cc3n(n2)C(C(F)(F)F)CC(c2cccs2)N3)c(C(=O)OCC)c1C (stereo not given)	96	-16	-21	2.6	39%
CC(=O)Cc1nsc(NC(=O)c2ccc(-c3cc(C(F)(F)F)ccc3Cl)o2)n1	-6	4	-2	-1.0	0%
O=C(NC(=S)Nc1cc(C(F)(F)F)ccc1Cl)c1ccccc1	6	2	-37	0.5	1%

More records
SMILES	Mtb betalactam	Arbovirus anti	YopH inh	RecA splice inh	Mtb growth	others
COc1ccccc1N1CCN(Cc2nc3ccccc3c(=O)n2CC(C)=O)CC1	-4	4	-19	0.9	-3%
CC(C)c1ccc(OCC(=O)NCCO)cc1	-2	0	-29	-1.7	3%
CC(C)(O)CC[C@@H](O)[C@](C)(O)[C@H]1CC[C@@]2(O)C3=CC(=O)[C@@H]4C[C@@H](O)[C@@H](O)C[C@]4(C)C3CC[C@]12C (stereo not given in full)	-8	1	.	0.2	14%
Cc1ccccc1C(=O)N(Cc1nc2ccccc2c(=O)[nH]1)C1CCCC1	1	22	.	1.2	6%
O=C(CN1CCOC1=O)N1CCCC(Nc2ccc(F)c(F)c2)C1 (stereo not given)	5	.	.	-0.2	.
COc1ccccc1N(CC(=O)N(CC(C)C)CC(C)C)S(=O)(=O)c1cccs1	0	0	.	2.4	3%
O=C1C(Cl)=C(N2CCC(C(=O)O)CC2)C(=O)c2ccccc21	3	.	.	50*	-7%
Cc1c(C(=O)N2CCCC2)c(S(=O)(=O)N2CCN(c3ccccc3F)CC2)c(C)n1C	-3	.	.	-0.1	.
CC1Sc2n(c3ccccc3[n+]2C)N=C1c1ccccc1 (stereo not given)	1	15	-36	5.4	0%

This is a subset; rates above refer to the full screens.
